HPGD inh: inhibitors of human 15-hydroxyprostaglandin dehydrogenase (HPGD); P15428; purified HPGD, NADH fluorescence kinetic, PGE2 substrate; Potency, µM, for inactives: at the top dose activity change, negative = inhibition, hits mostly inhibitors; actives 4.3% (n = 150,000); active = well fitted inhibition curve with a large enough effect (not every such curve was filed as active); inconclusive = small, poorly fitted or top-dose-only effect, or another doubt; inactive = no such curve, though single readings can be large or run the other way;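 also: top concentration of the series not given in the record; plate controls included wells without enzyme; inactives centre near -10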
Target sequence (P15428 whole entry, looked up): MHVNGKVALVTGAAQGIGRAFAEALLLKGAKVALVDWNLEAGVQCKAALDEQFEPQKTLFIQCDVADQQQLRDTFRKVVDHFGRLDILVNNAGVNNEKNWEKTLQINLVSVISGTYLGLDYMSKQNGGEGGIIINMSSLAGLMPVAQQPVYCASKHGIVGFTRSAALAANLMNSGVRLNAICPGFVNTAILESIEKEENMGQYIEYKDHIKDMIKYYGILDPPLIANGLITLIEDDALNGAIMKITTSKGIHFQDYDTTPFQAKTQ
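NADH formation kinetics: reaction with 30 uM PGE2 and 1 mM NAD+ (final), 20 nM enzyme, Tris-HCl pH 8 with Tween 20, after 15 min compound preincubation at room temperature. Fluorescence change, last versus first of five reads.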
* = called active by the depositor; ? = inconclusive; & = joins results of further samples. % is scaled to controls: 0 for no effect and ±100 for the full control effect; potency is read from the fitted curve at half-maximal effect.

HPGD inh | Molecule
-8% | COc1cccc([C@@H]2Oc3ccc(Br)cc3C[C@H]2OC(=O)N[C@H]2CCCc3ccccc32)c1
-24% | CC1(C)CC(=O)c2cnc(NCc3ccco3)nc2C1
-13% | O=C(NCC(c1cccnc1)N1CCN(c2ccccc2)CC1)c1ccc2c(c1)OCO2 (stereo not drawn)
-29% | CCN(Cc1ccncc1)S(=O)(=O)c1ccc(C(C)=O)cc1
4% | O=C(CSc1nnc(C2CCCCC2)n1-c1ccccc1)NCc1ccco1
-15% | CN(CC(=O)N1CCCc2c1c(=O)oc1ccc(O)cc21)Cc1ccccc1
-5% | Cc1noc2ncnc(Oc3ccc(F)cc3)c12
-12% | N#Cc1cccc(-c2cc(-n3ccnc3)ncn2)c1
? | COc1cc2c(cc1NC(=O)c1ccc3c(c1)OCO3)oc1ccccc12
-1% | Cc1ccc(N2CC(C(=O)N3CCN(c4ccccc4)CC3)CC2=O)cc1 (stereo not drawn)
-2% | O=C(Nc1ccc(Br)cc1F)c1ccncc1
4% | Cc1ccc(C(=O)N2CCN(C(=O)N3CCOCC3)CC2)cc1
? | N#C/C(=C\c1cn(Cc2ccc(F)cc2)c2ccccc12)C(=O)NCc1ccco1
? | CC(NS(=O)(=O)c1ccccc1)C(=O)NCc1ccco1 (stereo not drawn)
-1% | O=C(NCCc1ccccn1)c1cc(C(=O)C2CCCCC2)c[nH]1
-21% | O=[N+]([O-])c1ccc(Sc2cccc3cccnc23)c([N+](=O)[O-])c1
? | CCOC(=O)CCCSc1nc2sc(C)c(C)c2c(=O)[nH]1
-11% | CC(Sc1cccc(C(F)(F)F)c1)C(=O)NC(N)=O (stereo not drawn)
-2% | O=C(COc1ccc(F)cc1Br)N1CCc2ccccc21
-15% | CN1C/C(=N\S(=O)(=O)c2ccccc2)N(C)C1=O
-8% | COc1ccc2nc(N3C(=O)CC(Cc4cc(C)cc(C)c4)C3=O)sc2c1 (stereo not drawn)
-2% | Cc1ccc2[nH]c(=O)c(CN(C(=O)c3cccs3)c3ccccc3)cc2c1
-10% | COC(=O)Cc1c(O)ccn(Cc2ccc(F)cc2)c1=O
-1% | COc1ccc(Cl)cc1C(=O)N1CCN=C1SC
5% | Cn1cccc1Cc1nnc(SCC(N)=O)n1CCc1ccccc1
-12% | Cc1c(NC(=S)NC(=O)c2cc3ccccc3o2)c(=O)n(-c2ccccc2)n1C
? | CCN1CCCC1Cn1c(-c2ccccc2)nc2c(N3CCOCC3)nc(C)nc21 (stereo not drawn)
-27% | CN(Cc1ccccc1)C(=O)CC(c1ccccc1)c1cc(Cl)ccc1O (stereo not drawn)
-13% | CCCC(=O)Nc1nc2nc(-c3ccccc3)cc(=O)n2[nH]1
? | O=S(=O)(NC1CCCCC1)c1ccc(Cl)s1
-11% | c1ccc(Cn2nnc3c(N4CCCC4)ncnc32)cc1
-12% | CCN(CC)C(=O)/C(=C\c1cccc([N+](=O)[O-])c1)NC(=O)c1ccco1
-17% | COC(=O)N1CCC2(CCCN(Cc3cc(C(F)(F)F)cc(C(F)(F)F)c3)C2)CC1
? | COc1ccc(OC)c(NC(=O)c2cc3ccccc3o2)c1
-8% | O=C(c1ccco1)N1CCN(C(=O)C2(S(=O)(=O)c3ccc(Cl)cc3)CC2)CC1
-1% | CCCCNC(=O)CSc1nc2ccccc2c(=O)n1CC1COc2ccccc2O1 (stereo not drawn)
-6% | Cc1sc2c(c1C)c(=O)n(-c1ccccc1)c1nncn21
-19% | N/N=c1\sc2ccccc2n1-c1ccccc1
-12% | O=C(COC(=O)/C=C/c1ccccc1)NCc1ccc(Cl)cc1
-9% | O=C(Nc1nnc(-c2ccccc2Cl)o1)c1cccnc1

Quoted at random: 6 entries already listed.
HPGD inh | Molecule
-6% | Cc1sc2c(c1C)c(=O)n(-c1ccccc1)c1nncn21
-9% | O=C(Nc1nnc(-c2ccccc2Cl)o1)c1cccnc1
-8% | O=C(c1ccco1)N1CCN(C(=O)C2(S(=O)(=O)c3ccc(Cl)cc3)CC2)CC1
-19% | N/N=c1\sc2ccccc2n1-c1ccccc1
? | COc1ccc(OC)c(NC(=O)c2cc3ccccc3o2)c1
-17% | COC(=O)N1CCC2(CCCN(Cc3cc(C(F)(F)F)cc(C(F)(F)F)c3)C2)CC1

The main list resumes, repeating the six entries before the break.
HPGD inh | Molecule
-8% | O=C(c1ccco1)N1CCN(C(=O)C2(S(=O)(=O)c3ccc(Cl)cc3)CC2)CC1
-1% | CCCCNC(=O)CSc1nc2ccccc2c(=O)n1CC1COc2ccccc2O1 (stereo not drawn)
-6% | Cc1sc2c(c1C)c(=O)n(-c1ccccc1)c1nncn21
-19% | N/N=c1\sc2ccccc2n1-c1ccccc1
-12% | O=C(COC(=O)/C=C/c1ccccc1)NCc1ccc(Cl)cc1
-9% | O=C(Nc1nnc(-c2ccccc2Cl)o1)c1cccnc1
-4% | CCNc1nc(NCC)n2c(SCC(=O)Nc3ccccc3[N+](=O)[O-])nnc2n1
3.2µM* | CCN(CC)COC(=S)S
0% | O=C(CSc1ncnc2c1cnn2Cc1ccccc1)Nc1ccc2c(c1)OCCO2
0% | O=C(Cc1ccc2c(c1)OCCO2)N1CCN(S(=O)(=O)c2ccccc2C(F)(F)F)CC1
-13% | C=CCn1c(N)c(C(=O)N2CCN(C)CC2)sc1=S
-10% | O=C(O)c1cc([N+](=O)[O-])ccc1NCCO
-2% | CCN(CC)CCNC(=O)c1ccc2c(c1)ncn2C1CCCCC1
-18% | COc1cccc(OC)c1C(=O)NC(=S)Nc1cc(-c2nc3ccccc3[nH]2)ccc1Cl
-10% | O=C(Nc1cccc(S(=O)(=O)N2CCOCC2)c1)c1cn(-c2ccccc2)nc1-c1ccc(F)cc1
-4% | Cc1c(NC(=O)C(=O)/C=C(\O)c2ccc(Cl)cc2)c(=O)n(-c2ccccc2)n1C
-8% | COc1ccc(NC(=O)c2ccc3c(c2)n(C)c(=O)n3C)cc1
-3% | CCOC(=O)N1CCN(C(=O)C(=O)NNC(=O)COc2ccc(Cl)cc2)CC1
? | COc1cc(-c2cc(C(=O)OCC(=O)Nc3ccc4c(c3)OCO4)c3ccccc3n2)cc(OC)c1OC
-10% | O=C(Nc1ccccc1-c1ccccc1)C1CCCCC1
-17% | CCOC(=O)CN(C(=O)Cn1nnc2ccccc21)C(C(=O)NCCOC)c1ccccc1C (stereo not drawn)
-6% | Cc1cc(N2CCN(c3nnnn3-c3ccccc3)CC2)n2ncnc2n1
-3% | COc1ccc(S(=O)(=O)N2CCC(C(=O)Nc3ccc4c(c3)OCCO4)CC2)cc1OC
? | COc1nnc(-c2ccc(N3CCOCC3)c(NC(=O)c3ccc(C)cc3)c2)c2ccccc12
-7% | C/C(=C\c1ccccc1)CN1CCC(C(=O)N2CCC(C)CC2)CC1
-5% | CC(=O)c1ccc(-n2c(C)ccc2-c2ccccc2)cc1
-10% | CCOC(=O)c1nn(-c2cccc(Cl)c2)c2nc(Nc3ccccc3)cc(=O)n12
0% | CN1CCN(C(=O)/C=C\C(=O)O)CC1
-9% | CCC(=O)N1CCc2cc(S(=O)(=O)NC(Cc3ccccc3)C(=O)Nc3nccs3)ccc21 (stereo not drawn)
-15% | CN(C)CC[C@H](c1ccc(Cl)cc1)c1ccccn1
3%&-3% | CNC(=O)[C@H](C)[C@@H]1C[C@@]1(C)[C@@H](NC(=O)OCc1ccccc1)c1ccccc1
-6% | CC(OC(=O)CC(NC(=O)c1ccccc1Cl)c1ccccc1)C(=O)Nc1cccc(Cl)c1Cl (stereo not drawn)
-10% | CCCc1oc(C(=O)O)cc1CN1CCOCC1
? | COc1ccnc(NCc2ccc(Cl)cc2)c1C#N
? | N#C/C(=C\c1ccc(Cl)cc1Cl)c1n[nH]c(Cn2cncn2)n1
-29% | CC(C)(C)C(=O)Nc1ccc(C(=O)N/N=C/c2ccccc2OC(=O)c2ccc(Cl)cc2)cc1
-2% | C#CCOC(=O)c1ccccc1C(=O)N(CC)CC
0% | CCCOc1cc(C)c(S(=O)(=O)NC2CC(C)(C)NC(C)(C)C2)cc1C
-18% | O=C1N=C(N2CCCC2)S/C1=C\c1ccccc1
4% | Cc1ccc(C(C(=O)NC(C)(C)C)N(C(=O)c2csnn2)c2cccc(F)c2)o1 (stereo not drawn)
-8% | O=C(CN1CCN(S(=O)(=O)c2ccc(Cl)cc2)CC1)Nc1ccc2c(c1)OCO2
-18% | COC(=O)CN(c1ccc(C)cc1)S(=O)(=O)c1ccc2c(c1)n(C)c(=O)c(=O)n2C
? | COc1ccc(-c2nc3ccccc3n2Cc2ccccc2)cc1
13µM* | COc1ccc(/C=C(\C#N)C(=O)Nc2cc(S(=O)(=O)N3CCOCC3)ccc2N2CCCC2)cc1
-14% | O=C(NC(=O)N1CCN(c2cccc(Cl)c2)CC1)c1ccccc1
-22% | CC(C)CCNC(=O)NC(=O)CSc1nnc2ccccn12
1% | CCN=C1SCC(=O)N1c1ccc(OC)cc1
-6% | COC(=O)Cc1ccc(NC(=S)NCCCO)cc1
1% | CC1CCN(c2cc(N3CCOCC3)c(F)cc2[N+](=O)[O-])CC1
-16% | CC1CCCC(C)N1C(=O)COC(=O)C(Cc1ccccc1)NC(=O)c1cccs1 (stereo not drawn)
-11% | COc1ccc(C(=O)N2CCCC(c3nc(-c4ccc(OC)c(OC)c4)no3)C2)c(OC)c1 (stereo not drawn)
-4% | COc1ccc(C(CC(=O)Nc2ccc(C)cc2)NC(=O)C(F)(F)F)cc1 (stereo not drawn)
? | Cc1ccc2ccc(S(=O)(=O)n3nc(C)cc3C)cc2c1
-13% | CCCC(=O)N1CCN(c2ccc(NC(=O)c3ccccc3)cc2)CC1
-6% | CCOC(=O)c1c(C)c(C#N)c2c3ccccc3ccn12
1% | Cn1c(=O)oc2cc(S(=O)(=O)N3CCC(C(=O)N4CCc5ccccc5C4)CC3)ccc21
-9% | O=C1C(Oc2ccccc2)C(c2cccs2)N1Cc1ccc2c(c1)OCO2 (stereo not drawn)
-5% | O=S(=O)(Nc1ccc(C(F)(F)F)cc1)c1cnc[nH]1
-21% | COc1ccc(-c2noc(CSc3nnc(CCc4ccccc4)n3-c3ccccc3)n2)cc1OC
-14% | O=c1[nH]c(SCc2nc3ccccc3c(=O)n2-c2ccccc2C(F)(F)F)nc2ccccc12
? | COc1ccc(-c2nnc3ccc(SCC(=O)Nc4nccs4)nn23)cc1OC
-13% | O=C(NCc1cccs1)c1cc(-c2ccccc2)nc2ccccc12

(listing goes on)
HPGD inh | Molecule
-2% | Cc1csc(OCc2ccc(C#N)cc2)n1
-14% | COc1ccc(OCC(=O)Nc2ccc3c(c2)nc(CCN2CCOCC2)n3C)cc1
-8% | O=C1N/C(=C/c2ccc(N3CCCC3)cc2)C(=O)N1c1ccccc1
1% | Cc1cccc(OCCCC(=O)O)c1C
-15% | CCOC(=O)c1sc(-c2ccc(F)cc2)cc1N
-7% | CC(C)C(=O)N1CCN(c2ccccc2NC(=O)Cc2ccc(Cl)cc2)CC1
25µM* | CCC(C)c1ccc(NC(=S)Nc2ccc(OC)cc2C)cc1 (stereo not drawn)
-12% | Cc1nnc(Sc2c(-c3ccccc3)c3ccc(Cl)cc3[nH]c2=O)s1
-19% | O=S(=O)(Cc1ccccc1)N1CCC(N2CCN(c3ccccc3)CC2)CC1
-17% | CCOC(=O)CN1N=C(c2ccc(Cl)s2)CSC1=O
0% | O=C(NCCCN1CCOCC1)c1cc(-c2ccc(O)cc2)on1
14µM* | COC(=O)c1ccccc1SC1CC(=O)N(c2ccccc2)C1=O (stereo not drawn)
-4% | OC1C[N+]2(CCCCC2)C1
-5% | COC(=O)C(Cc1cncn1COCc1ccccc1)NC(=O)OC(C)(C)C (stereo not drawn)
-24% | CC1CCc2nc(NC(=O)Cc3cccs3)sc2C1 (stereo not drawn)
? | COCc1cc(C)[nH]c(=O)c1C#N
-12% | CCCSc1nsc(SCCC)c1C#N
-2% | CCC(CO)NCc1ccc(-c2ccccc2)cc1 (stereo not drawn)
-6% | CCOC(=O)N1CCC(NC(=O)C(NS(=O)(=O)c2ccc3c(c2)CCN3C(C)=O)C(C)C)CC1 (stereo not drawn)
-11% | CCOc1ccc(NC(=O)c2cccs2)c([N+](=O)[O-])c1
7% | Cc1ccc(Sc2c([N+](=O)[O-])ncn2C)cc1
? | N#Cc1ccc(-c2ccc(OCC(=O)NCCc3ccccc3)cc2)cc1
? | Cc1ccc(C(=O)/C=C\NCc2ccccc2)cc1
? | c1ccc2[nH]c(-c3ccnc4ccccc34)nc2c1
-22% | CCn1ncc(CN2CCN(C(=O)Nc3ccccc3C(=O)OC)CC2)c1C
-20% | Cc1nc(SCC(=O)Nc2cc(Cl)ccc2[N+](=O)[O-])nc(C)c1C
-6% | Nc1ccccc1CCCC(=O)O
-11% | Nc1nc(NC(=O)Cc2ccccc2)nn1-c1ccccc1
-8% | CCN(CC)CCNS(=O)(=O)c1ccc2[nH]cc(C(=O)O)c(=O)c2c1
0% | CCOCCCN(CCC#N)S(=O)(=O)c1ccc(S(=O)(=O)N2CCCC2)cc1
-3% | O=C(CCS(=O)(=O)c1ccc(Br)cc1)NC1CCCC1
-7% | COc1ccccc1NC(=O)NCCCl
1% | Cc1ccnc(SCC(=O)O)n1
-6% | Cc1ccc(C(=O)Nc2ccc(Cl)cn2)cc1
-6% | O=C(O)c1cccc(NC(=O)c2ccc3c(c2)C(=O)N(CC2CCCO2)C3=O)c1 (stereo not drawn)
-16% | COc1ccc(/C=C2\CCc3ccccc3C2=O)cc1Cn1cccn1
-21% | O=C(COc1ccc(S(=O)(=O)NC2CCCCC2)cc1Cl)NCc1ccc2c(c1)OCO2
-9% | CC(C)(C)[C@]1(O)CCN2CC3c4ccccc4CCc4cccc(c43)[C@@H]2C1 (stereo partly drawn)

Screens deposited in PubChem by National Center for Advancing Translational Sciences (NCATS).

Only part of the results is shown. The share of hits here may be higher or lower than overall.
